VACV Venus inh = qHTS for Stage-Specific Inhibitors of Vaccinia Orthopoxvirus: Venus Reporter Primary qHTS; Vaccinia virus Venus reporter expression, fluorescence; Potency, µM (doses to about 36.5 µM), for inactives: at the top dose activity change, negative = inhibition, hits mostly inhibitors; 0.46% of 330,000 active; active means well fitted inhibition curve with a large enough effect; inconclusive means small, poorly fitted or top-dose-only effect; inactive means no such curve, though single readings can be large or run the other way; tested in A549 cells; further: nearly all actives have a fitted effect of over 30% in size; inactives centre near -10
VACV mCherry inh = qHTS for Stage-Specific Inhibitors of Vaccinia Orthopoxvirus: mCherry Reporter Primary qHTS; Potency, µM (series often up to 36.5 µM), without a hit: top-dose activity change, negative = inhibition, hits mostly inhibitors; Vaccinia virus mCherry reporter infection, fluorescence; about a quarter of the inactives have no number; 0.63% of 310,000 active; active = well fitted inhibition curve with a large enough effect; inconclusive = small, poorly fitted or top-dose-only effect; inactive = no such curve, though single readings can be large or run the other way; tested in A549 cells; further: nearly all actives have a fitted effect of over 35% in size; inactives centre near -10
* marks the source's active call; other numbers are inactive results; i = inactive; ? = inconclusive; . = not tested or not shown; & = joins results of further samples; [ ] = dose if it differs, or a comment. On the % scale 0 is the no-effect control and ±100 the full control effect; potency means the concentration at half of the fitted maximal effect.

SMILES,VACV Venus inh,VACV mCherry inh
COCCN1C(=O)c2ccccc2C(C(=O)N2CCN(c3ccccn3)CC2)C1c1ccc(F)cc1 (configuration not stated),-4%,-1%
CC1CCN(c2ccccc2NC(=O)c2ccc(C#N)cc2F)CC1,-12%,-6%
O=C(NN=C1CCCCCCC1)C(=O)NC1CCCCC1,-2%,-12%
Cc1ccc(SCCNC(=O)CN(c2ccccc2)S(=O)(=O)N(C)C)cc1,0%,-12%
CCOc1ccc(N2CC(C(=O)Nc3cccc(S(=O)(=O)N4CCCC4)c3)CC2=O)cc1 (configuration not stated),-11%,-5%
COc1cc(NC(=O)CCN2CCN(CCO)CC2)cc(OC)c1,0%&-2%,-14%&-8%
Cc1cc(NC(=O)Cc2cccs2)nn1CC(=O)NCc1ccco1,1%,.
CSc1cccc(NC(=O)c2ccc(Cl)nc2)c1,-12%,.
COc1cc(C)c(S(=O)(=O)NC2CC(C)(C)NC(C)(C)C2)cc1C,-16%,-2%
CCCCCN(C(=O)CCC(=O)OCc1cc(C(C)=O)ccc1OC)c1c(N)n(CCCC)c(=O)[nH]c1=O,-11%,-1%
COc1ccc(C)cc1S(=O)(=O)N(C)CC(N)=O,-6%,.
CCOC(=O)c1sc(NC(=O)CSc2nccc(C)n2)c(C#N)c1C,-13%,i
CC(=O)Nc1nc(C)nc(-c2ccccc2)c1C(C)=O,-16%,-9%
O=C(NCCCc1nc2ccccc2n1Cc1ccc(F)cc1)C1CCCCC1,-20%,i
Cc1c(N=O)c(-c2ccccc2)n(O)[n+]1[O-],-18%,-7%
CCCCC(=O)Nc1ccc(C(=O)NNC(=O)c2ccco2)cc1,-10%,-9%
COc1cc(NC(=O)COC(=O)CC2CC3CCC2C3)cc(OC)c1 (configuration not stated),-8%,-10%
O=C(CSc1nc(-c2ccc(F)cc2)cc(C(F)(F)F)n1)Nc1ccc2c(c1)OCO2,-11%,-4%
COc1ccc(N2CCN(S(=O)(=O)c3ccc(C(=O)NC4CCCC4)cc3)CC2)cc1,-16%,i
COc1cccc(OCCSc2nnc3sc4ccccc4n23)c1,-6%,.
O=C(NCCCl)Nc1cccc(Br)c1,-16%,-3%
CCOC(=O)c1sc2c(c1C)C(c1cccs1)C1=C(CCCC1=O)N2 (configuration not stated),?,.
COc1cccc(N2CCN(c3ncnc4c3cnn4-c3ccc(C)cc3C)CC2)c1,?,14µM*
COCCn1c(C)cc(C(=O)CN2C(=O)NC3(CCCCCCC3)C2=O)c1C,-20%,-4%
CS(=O)(=O)c1ccc(Nc2nc(C(N)Cc3ccc(C(F)(F)F)cc3)cs2)cc1 (configuration not stated),-16%,-3%
O=C(Cn1cnc2c(NCc3ccccc3)ncnc21)NCCCc1ccccc1,-20%,-12%
CCC(C)[C@H](NC(=O)OC(C)(C)C)C(=O)N/N=C/c1ccc2cc(OC)ccc2n1 (some centres not stated),-6%,-18%
Cc1ccc2nc(C)cc(N/N=C/c3cccc(O)c3)c2c1,?,-25%
CCNC(=O)O/N=C(\C)c1sc(-c2ccc(Cl)cc2)nc1C,-1%,i
C/C(=N\NC(=O)CSc1nc2ccccc2o1)c1ccc(O)cc1,-22%,-25%

20 of the compounds above, with values under each structure.
Sequence of screens: VACV Venus inh	VACV mCherry inh
> CSc1cccc(NC(=O)c2ccc(Cl)nc2)c1
 : -12%	.
> COc1cc(C)c(S(=O)(=O)NC2CC(C)(C)NC(C)(C)C2)cc1C
 : -16%	-2%
> CCCCCN(C(=O)CCC(=O)OCc1cc(C(C)=O)ccc1OC)c1c(N)n(CCCC)c(=O)[nH]c1=O
 : -11%	-1%
> COc1ccc(C)cc1S(=O)(=O)N(C)CC(N)=O
 : -6%	.
> CCOC(=O)c1sc(NC(=O)CSc2nccc(C)n2)c(C#N)c1C
 : -13%	i
> CC(=O)Nc1nc(C)nc(-c2ccccc2)c1C(C)=O
 : -16%	-9%
> O=C(NCCCc1nc2ccccc2n1Cc1ccc(F)cc1)C1CCCCC1
 : -20%	i
> Cc1c(N=O)c(-c2ccccc2)n(O)[n+]1[O-]
 : -18%	-7%
> CCCCC(=O)Nc1ccc(C(=O)NNC(=O)c2ccco2)cc1
 : -10%	-9%
> COc1cc(NC(=O)COC(=O)CC2CC3CCC2C3)cc(OC)c1 (configuration not stated)
 : -8%	-10%
> O=C(CSc1nc(-c2ccc(F)cc2)cc(C(F)(F)F)n1)Nc1ccc2c(c1)OCO2
 : -11%	-4%
> COc1ccc(N2CCN(S(=O)(=O)c3ccc(C(=O)NC4CCCC4)cc3)CC2)cc1
 : -16%	i
> COc1cccc(OCCSc2nnc3sc4ccccc4n23)c1
 : -6%	.
> O=C(NCCCl)Nc1cccc(Br)c1
 : -16%	-3%
> CCOC(=O)c1sc2c(c1C)C(c1cccs1)C1=C(CCCC1=O)N2 (configuration not stated)
 : ?	.
> COc1cccc(N2CCN(c3ncnc4c3cnn4-c3ccc(C)cc3C)CC2)c1
 : ?	14µM*
> COCCn1c(C)cc(C(=O)CN2C(=O)NC3(CCCCCCC3)C2=O)c1C
 : -20%	-4%
> CS(=O)(=O)c1ccc(Nc2nc(C(N)Cc3ccc(C(F)(F)F)cc3)cs2)cc1 (configuration not stated)
 : -16%	-3%
> O=C(Cn1cnc2c(NCc3ccccc3)ncnc21)NCCCc1ccccc1
 : -20%	-12%
> CCC(C)[C@H](NC(=O)OC(C)(C)C)C(=O)N/N=C/c1ccc2cc(OC)ccc2n1 (some centres not stated)
 : -6%	-18%

Going on with the list:
SMILES,VACV Venus inh,VACV mCherry inh
Cc1ccc(C)c(C(=O)CN2C(=O)c3ccccc3C2=O)c1,-3%,-22%
CC(=O)NCC1(O)CCCC(C)C1 (configuration not stated),6%,-18%
O=C(CCC1CCCN(C(=O)c2cccnc2)C1)NCc1ccccc1F (configuration not stated),-13%,i
CC1(C(=O)NS(=O)(=O)c2ccccc2)CCN1C(=O)C1(c2ccc(Cl)cc2)CC1 (configuration not stated),-7%,14%
Cc1c(C#N)c(NC(=O)c2ccccc2)n(Cc2ccccc2)c1C,-4%,.
CCOc1ccccc1N1CCN(C/C=C/c2ccc(N(C)C)cc2)CC1,-12%,.
Cc1ccccc1NC(=O)Nc1nnc([C@@H]2C[C@H](O)[C@@H](CO)O2)s1,8%,i
CCc1nnc(NC(=O)CSc2nnc3nc(C)cc(C)n23)s1,-7%,4%
c1ccc(-c2cc3nccc(-c4ccccn4)n3n2)cc1,-8%,?
O=C(NCC(c1ccco1)N1CCCC1)c1ccc(S(=O)(=O)Nc2ccccc2F)cc1 (configuration not stated),-21%,i
Cc1nn(C)cc1/C=N\NC(=O)c1ccc2c(c1)c(C)c(C)n2Cc1ccccc1,?,-22%
CC(C)(C)C(=O)C(C(c1ccccc1)N1CCOCC1)N1CCOCC1 (configuration not stated),-6%,-13%
CCOC(=O)c1c(NC(=S)NC(=O)/C=C/c2cccs2)sc(C)c1C,-6%,i
O=[n+]1cc(-c2ccc(Cl)cc2)n([O-])c2c1CCCCC2,-5%,0%
Fc1ccc(N2CCN(Cc3cnc(N4CCOCC4)s3)CC2)cc1,-3%,i
CCOC(=O)c1cn(-c2nc(-c3ccc(Cl)c(Cl)c3)cs2)c2c(F)c(N3CCOCC3)c(F)cc2c1=O,-3%,-6%
Cc1cccc(C(=O)N2CCc3cc(CNS(=O)(=O)c4ccc(Cl)s4)ccc32)c1,-11%,-12%
COc1ccccc1NC(=O)C(C)Sc1nc2ccccc2c(=O)n1CC1CCCO1 (configuration not stated),-19%,-21%
O=C(COC(=O)/C=C/c1ccc(Br)o1)Nc1cccc(S(=O)(=O)N2CCOCC2)c1,-7%,-14%
CC(C)C1N=C2c3ccccc3N=C(SCC(=O)NCc3ccc(F)cc3)N2C1=O (configuration not stated),-4%,-5%
Cc1ccc2nc(NCCc3ccc(Cl)cc3)c3nncn3c2c1,-11%,-8%
O=S(=O)(c1ccc(Cl)cc1)c1nnn2c1nc(N1CCCCC1)c1sccc12,?,?
O=C(COc1ccc(Cl)cc1)OCc1cc(=O)n2nc(C3CC3)sc2n1,3%,0%
O=C(CCC1N=C2c3ccccc3N=C(SCc3cccc(Cl)c3)N2C1=O)NCc1cccs1 (configuration not stated),-7%,-12%
Cc1ccccc1NC(=O)c1c(Cl)nc(C)c(Cl)c1C,-13%,i
O=C(NCCc1ccccc1)/C(=C\c1cccc([N+](=O)[O-])c1)NC(=O)c1ccco1,-15%,-14%
CCC(NC(=O)CNC(=O)c1ccc2c(c1)OCO2)c1ccc(Br)cc1 (configuration not stated),-14%,i
COC(=O)CNC(=O)C1Cc2ccccc2CN1S(=O)(=O)c1cccs1 (configuration not stated),-2%,-9%
c1ccc(SCc2nc3ccccc3[nH]2)nc1,-15%,.
CCN(CC)S(=O)(=O)c1ccc2nc(NC(=O)c3ccc(Br)o3)sc2c1,4%,-5%

Given with values under each structure: three of the compounds above
Results follow in this order: VACV Venus inh, VACV mCherry inh
COc1ccccc1NC(=O)C(C)Sc1nc2ccccc2c(=O)n1CC1CCCO1 (configuration not stated)
  -19%, -21%
O=C(COC(=O)/C=C/c1ccc(Br)o1)Nc1cccc(S(=O)(=O)N2CCOCC2)c1
  -7%, -14%
CC(C)C1N=C2c3ccccc3N=C(SCC(=O)NCc3ccc(F)cc3)N2C1=O (configuration not stated)
  -4%, -5%

Next part.
SMILES,VACV Venus inh,VACV mCherry inh
O=C(Nc1ccccc1)C1=C[C@H](C2CCCCC2)C[C@H](OCc2ccc(CO)cc2)O1,-10%,-1%
CCCC(=O)NCCSC,0%,-19%
Cc1ccc2nc(N3CCN(C)CC3)[nH]c2c1,2%,10%
NS(=O)(=O)c1ccc(CCNC(=O)CCCn2c(SCC(=O)N3CCCC3)nc3ccsc3c2=O)cc1,-13%,i
C=CCCC(=O)N1C[C@H]2CON(C)[C@H]2C[C@H]1c1ccc(-n2ccnc2)cc1,12%,36%[activator]
Cc1ccc(S(=O)(=O)N/N=C(\c2ccccc2)c2cccnc2)cc1,-11%,i
COc1cccc(CNC(=O)CCCNS(=O)(=O)c2cccs2)c1,?,.
Cc1ccc(C)c(CSc2cn(CCNC(=O)c3cccs3)c3ccccc23)c1,-12%,-16%
O=C(NC(=S)N1CCCCC1)c1csc([N+](=O)[O-])c1,-3%,-5%
COC(=O)Cc1c(C)c2ccc(OC(=O)c3ccco3)cc2oc1=O,12%,.
Cc1nccc(-c2ccc(-n3c(C)ccc3C)cc2)n1,-15%,-14%
O=C(NCCC1=CCCCC1)c1ccc(Br)o1,-11%,-4%
CCCCSc1nc2c([nH]1)c(=O)n(C)c(=S)n2C,-10%,-22%
O=C(CCCOc1ccc(Cl)cc1Cl)Nc1ccncc1,-28%,-10%
Cc1cc(C)nc(N2CCCC(C(=O)NC3CCCC3)C2)n1 (configuration not stated),-7%,-4%
Cc1ccc2nc(C(Cl)(Cl)Cl)nc(N/N=C/c3ccncc3)c2c1,-18%,i
COc1ccc(/C=C2\SC(N)=NC2=O)cc1Br,-22%,-21%
CCOC(=O)c1c(C)[nH]c(NC(=O)N2CCOCC2)c1C,7%,-1%
COc1cccc(NC(=O)NCc2ccccc2Cl)c1,2%,0%
CCN1CCN(S(=O)(=O)c2ccc(Oc3ccccc3OC)cc2)CC1,-14%,i
CCNS(=O)(=O)c1ccc(NC(=O)Nc2cccc(OC)c2)cc1,-27%,?
COc1cccc([C@@H]2CC=C(C(=O)O)[C@H](c3ccccc3)N2S(=O)(=O)c2ccc(C)cc2)c1,-9%,i
CC(CCN1CCN(c2ccc(F)cc2)CC1)c1ccccc1 (configuration not stated),-9%,-7%
O=C(Nc1ccc(O)cc1)c1cc2n(n1)C(C(F)(F)F)CC(c1ccco1)N2 (configuration not stated),-21%,.
Cc1ccccc1CNc1ccc(C(CC(N)=O)NC(=O)c2ccc(Br)cc2)cc1[N+](=O)[O-] (configuration not stated),-28%,i
Cc1ccc(S(=O)(=O)NCCCCCC(N)=O)cc1,-6%,-14%
Cn1ncc(N=Cc2ccccc2[N+](=O)[O-])c1C(N)=O,-12%,-25%
CN(C)c1c(N)[nH]c2c(c1=O)c(=O)n(C)c(=O)n2C,-6%,i
CNC(=O)C1CC(=O)N(CCc2ccccc2)C(=Nc2ccc(OC)cc2)S1 (configuration not stated),-9%,0%
